Compound activity (PubChem)
GALR2 agonist: agonists of human galanin receptor 2 (GALR2); O43603; GALR2-expressing cells, agonist activation read-out; activation, %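 (tested at 5 µM)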; 140,000 compounds, 0.48% hits;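 active means above mean plus 3 SD of all compounds, about 5% in these data, not always enough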;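 further: 0% = vehicle buffer wells and 100% = reference agonist at full effect; tested in CHO reporter cells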
Target sequence (O43603 whole entry, looked up): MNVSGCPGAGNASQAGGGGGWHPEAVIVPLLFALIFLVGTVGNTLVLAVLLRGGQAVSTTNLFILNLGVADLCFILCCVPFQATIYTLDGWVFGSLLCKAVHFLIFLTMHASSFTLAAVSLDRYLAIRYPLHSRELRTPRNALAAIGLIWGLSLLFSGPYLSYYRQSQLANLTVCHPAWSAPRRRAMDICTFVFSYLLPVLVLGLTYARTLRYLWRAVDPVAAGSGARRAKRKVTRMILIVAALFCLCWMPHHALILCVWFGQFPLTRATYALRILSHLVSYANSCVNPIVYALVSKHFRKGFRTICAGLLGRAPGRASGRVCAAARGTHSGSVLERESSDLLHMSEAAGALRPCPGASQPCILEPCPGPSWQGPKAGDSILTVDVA
Insulin prom inh: TRM-6 insulin promoter activity inhibition | 130,000 compounds, 0.9% hits | TRM-6 cells (human fetal islet line), insulin promoter-eGFP reporter, imaging; reporter expression induced with tamoxifen | inhibition, % at 2 µM;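 active means inhibition above the mean plus 3 SD, with well images judged a real hit on visual review, cut at about 60% in these data, passing the limit was not always enough; inconclusive means inhibition over the cutoff but images rejected on review; inactive means inhibition not above the cutoff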
PKD1 inh: blocks activity of human protein kinase D1 | PKD1 kinase fluorescence polarization assay | 200,000 compounds, 0.056% hits | inhibition, %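 (about 10 µM by stock and volumes)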;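 active means inhibition of 50% or more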;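 further: controls were vehicle for no effect and a reference inhibitor for full effect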
RGS16-Gao: modulates binding between human RGS16 and Galphao. binding response (% of control), % at 10 µM. O15492+P09471. 220,000 compounds, 0.38% hits. bead-based flow cytometry RGS16-Galphao binding, fluorescence; actives lie on both sides;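 active means below 25% or above 175%, edge rows of some plates excepted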;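 further: Galphao activated by GDP with aluminum fluoride before binding; 100% = wells without compound and 0% = beads without RGS; some results beyond the cut were filed as inactive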
Target sequence (O15492 whole entry, looked up): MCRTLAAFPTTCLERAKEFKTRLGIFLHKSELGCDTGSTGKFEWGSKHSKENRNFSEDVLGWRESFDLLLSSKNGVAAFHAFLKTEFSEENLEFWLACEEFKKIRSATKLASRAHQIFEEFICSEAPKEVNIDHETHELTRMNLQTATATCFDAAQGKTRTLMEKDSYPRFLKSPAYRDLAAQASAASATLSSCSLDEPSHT
Target sequence (P09471 whole entry, looked up): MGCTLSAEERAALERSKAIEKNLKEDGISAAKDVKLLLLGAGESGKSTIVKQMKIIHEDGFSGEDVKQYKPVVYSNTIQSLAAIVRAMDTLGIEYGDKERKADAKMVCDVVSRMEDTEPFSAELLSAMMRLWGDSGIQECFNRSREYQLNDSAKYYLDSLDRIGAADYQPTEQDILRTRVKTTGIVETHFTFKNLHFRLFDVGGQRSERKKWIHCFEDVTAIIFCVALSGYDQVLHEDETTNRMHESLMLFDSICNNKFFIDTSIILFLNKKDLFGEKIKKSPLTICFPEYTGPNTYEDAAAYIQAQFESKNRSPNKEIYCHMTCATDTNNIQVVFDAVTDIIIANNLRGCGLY
HSV augment: HSV replication enhancement | HSV replication augmentation in cells, fold increase | maximum fold increase | 220,000 compounds, 0.005% hits | AID 1956;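 active means peak rise of 1.5-fold or more in the series; inconclusive means self-fluorescent or not available for retest; tested in PC3 cells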;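 further: first round at 10 µM; read as green reporter fluorescence; hits show the peak of a series up to 25 µM; 1 = signal of infected wells without compound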
Insulin prom inh cell count: also measured in Insulin prom inh; calls as there; normalized cell count, %; measured here: cell count, toxicity; reference of the scale not given here;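 cells exposed to compound for 48 h; stained nuclei by imaging scaled within each plate; lower means fewer cells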
HSV augment primary fold: recorded beside HSV augment, whose call it bears; fold increase; compound at 10 µM; measured here: primary screen fold increase 10 uM; tested in PC3 cells;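 GFP signal in the first replicate; 1 = infected wells without compound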
* hit, by the source's call; i = inactive; ? = inconclusive; nt = no result given. Compounds were not picked by outcome (roughly 1.3% active in at least one column).

SMILES	GALR2 agonist	Insulin prom inh	Insulin prom inh cell count	PKD1 inh	RGS16-Gao	HSV augment	HSV augment primary fold
Cn1c(COc2ccccc2)nnc1SCC(=O)NNC(=O)C1CCCCC1	nt	nt	nt	-1	110	i	0.93
COc1cccc(CNc2ccc(F)c(Cl)c2)c1	-0.8	7	112	2	104	i	1
C=C(C)COc1ccc2c3c(c(=O)oc2c1OCC(=C)C)CCC3	-2.1	-143	106	-1	105	i	0.71
CCOC(=O)c1ccc(CSc2nncn2N)o1	-2.9	25	105	-6	100	i	0.96
COc1ccc(CCN2C(=O)CC(NCc3ccc4c(c3)OCO4)C2=O)cc1OC (configuration not stated)	-1.3	-12	136	-7	56	i	1
COc1cccc(CNC(=O)CCSCc2ccccc2F)c1	nt	13	132	11	103	i	0.92
CCCCc1cc(=O)oc2cc(O)cc(O)c12	nt	nt	nt	1	104	i	0.98
C=CCn1c(=N)n(CC(=O)OCC)c2ccccc21	-2.8	19	94	-11	105	nt	nt
COc1cc(C(=O)N[C@H](C(=O)NC(C)C23CC4CC(CC(C4)C2)C3)C(C)C)cc(OC)c1OC (some centres not stated)	0.1	3	88	-2	104	i	1.1
CCOC(=O)C1CCCN(C(=S)Nc2ccc(OC)cc2)C1 (configuration not stated)	nt	0	111	-8	110	i	0.97
Cn1c(-c2ccccc2)c(C=O)c2ccccc21	nt	nt	nt	7	99	i	0.95
O=C(NC1CCCCC1)N1CCC(c2nc3ccc(Cl)cc3[nH]2)CC1	1.3	0	139	-1	103	i	1.1
O=C(NC(=S)N1CCN(c2ccccn2)CC1)c1ccco1	nt	nt	nt	-11	103	i	0.98
N=C1C(=O)OCC1c1ccccc1NC(=O)CN1CCCCC1 (configuration not stated)	0.1	-62	88	-18	100	i	0.85
O=C(Oc1ccc([N+](=O)[O-])cc1)c1cncc(Br)c1	0.0	-17	139	6	112	i	0.99
CN(CC(=O)OCC(=O)Nc1ccccc1)S(=O)(=O)c1ccc(Cl)cc1	-0.2	27	108	2	97	i	1
CCOc1ccccc1CN1CCN(C/C=C/c2ccc(OC)cc2)CC1CCO (configuration not stated)	nt	nt	nt	-4	106	i	0.86
CCSc1nc2c(c(=O)[nH]c(=O)n2C)n1CC(O)COc1ccccc1 (configuration not stated)	nt	-64	109	-2	111	i	0.95
Cc1ccc(OCCn2c(CCNC(=O)C(C)C)nc3ccccc32)cc1	-1.3	nt	nt	-3	113	i	1
CCOc1ccc(-c2cc(C(=O)N3CCN(c4ccccn4)CC3)c3ccccc3n2)cc1	-3.2	i	41	-4	100	i	0.6
CN1CC(c2ccccc2)C2(SC(=S)N(Cc3ccco3)C2=O)C12C(=O)Nc1ccccc12 (configuration not stated)	-2.3	-29	101	-6	107	i	0.75
Cc1ccc(-c2nnc(N3CCN(c4ccccn4)CC3)c3ccccc23)cc1	-2.0	11	93	-3	96	nt	nt
CCc1ccc(C2C(C(C)=O)=C(C(=O)OC)Nc3nnnn32)cc1 (configuration not stated)	-0.8	0	119	-4	118	i	0.8
S=C(NCCCN1CCOCC1)Nc1ccc(-c2nc3ccccc3[nH]2)cc1	nt	nt	nt	-3	90	i	0.94
CC(C)Oc1ccc(CCC(=O)NNC(=S)Nc2ccccc2)cc1	nt	nt	nt	nt	95	i	0.93
CCN1CCN(CC2CC3C=CC2C3)CC1 (configuration not stated)	-1.2	12	177	13	104	i	0.99
CCC(=O)Nc1sc2c(c1C(N)=O)CCC2	-1.0	0	122	20	-7.4*	i	0.98
COc1ccc(C2=NOC(C(=O)NCc3ccccn3)C2)cc1 (configuration not stated)	-4.3	14	132	-9	100	i	0.93
COc1cccc(COc2ccc3c(C)c(Cc4ccccc4)c(=O)oc3c2)c1	-3.8	-11	101	-7	nt	i	0.99
COc1ccccc1C(=O)N1CCNC(=O)C1CC(=O)Nc1cccc(C)c1 (configuration not stated)	-3.2	8	109	6	115	i	0.87
NS(=O)(=O)c1ccc(NC(=S)N2CCN(c3cccc(Cl)c3)CC2)cc1	-0.8	14	128	1	75	i	0.97
Cc1ccc(/C([O-])=C(/C(=S)NCc2ccccc2)[n+]2cccc(CO)c2)cc1[N+](=O)[O-]	nt	i	75	-1	89	i	0.99
C(=N\N1CCN(Cc2cccc3ccccc23)CC1)/c1cccs1	nt	nt	nt	nt	94	i	0.94
Cc1cc(NC(=O)CSc2nnc(COc3ccccc3)o2)no1	-3.0	-12	98	-5	76	i	0.96
O=C(COc1ccc(Br)cc1)OCc1nnc(-c2ccccc2)o1	-0.7	-64	99	-4	102	i	0.9
CSCCC(NC(=O)c1ccc([N+](=O)[O-])cc1Cl)C(=O)OCC(=O)C12CC3CC(CC(C3)C1)C2 (configuration not stated)	0.0	31	75	-12	44	i	0.96
COc1ccc(OC)c(CCNC(=O)Cn2cccc2C(=O)c2ccccc2C)c1	nt	-21	94	3	104	i	0.89
CCO[C@H]1OC(C(=O)NCc2ccccc2)=C[C@@H](c2ccc(C(F)(F)F)cc2)[C@@H]1CCCO	nt	nt	nt	2	92	i	0.86
CCCc1cc(=O)oc2c(C)c3occ(C)c3cc12	-1.5	38	164	0	102	i	0.9
O=S(=O)(Oc1ccc(Cl)cc1)c1cccc2cccnc12	nt	nt	nt	nt	104	i	1.1
Cc1n[nH]c(C)c1S(=O)(=O)N1CCCC(C(=O)NCC2COc3ccccc3O2)C1 (configuration not stated)	-1.7	nt	nt	-10	103	i	0.93
Cc1ccc(/C=C2/Sc3ccccc3N(CC(=O)NCCCOC(C)C)C2=O)cc1	-0.1	-50	137	-6	59	i	0.89
O=C(CCc1ccccc1)NC(=S)Nc1ccc2c(c1)C(=O)OC2	nt	nt	nt	-5	104	i	0.85
O=C(N1CCCCC1)N1CCN(C(=O)N(c2ccccc2)c2ccccc2)CC1	0.1	-231	27	-5	126	i	1.1
O=S(=O)(Nc1ccc(N2CCCCC2)cc1)c1ccccc1F	nt	nt	nt	nt	104	i	1.1
O=C(Cc1cccc(C(F)(F)F)c1)NCc1ccc(Cl)cc1	-1.0	7	104	-8	100	i	0.96
COc1cccc(OCCCN2CCN(S(=O)(=O)c3ccc(NC(C)=O)cc3)CC2)c1	-2.9	-6	98	-2	170	i	1
O=C(c1ccco1)N1CCN(Cc2ccc(Cl)cc2)CC1	-1.3	-47	83	3	101	i	0.91
CCOC(=O)Nc1nn(-c2ccc(C)cc2)c(=O)c(C#N)c1C	nt	24	103	-6	100	i	0.84
Cc1ccc(NC(=O)CSc2nc(N)c(-c3ccccc3)c(=O)[nH]2)cc1Cl	nt	nt	nt	-2	97	i	0.9
CCOC(=O)c1oc2ccc(Cl)cc2c1NC(C)=O	nt	20	86	4	105	i	1.1
CC(=O)Cn1c(CN2CCCCC2)nc2ccccc2c1=O	nt	nt	nt	-4	100	i	1.1
CCCCNC(=O)CSc1nc2ccccc2n1S(=O)(=O)c1ccc(Cl)cc1	-1.7	nt	nt	9	94	i	1.1
N/C(=N\N=C/c1ccc(Br)cc1)N/N=C\c1ccc(Br)cc1	nt	nt	nt	-4	95	i	0.93
CCc1ccc(Oc2nc([N+](=O)[O-])nn2C)cc1	nt	nt	nt	-8	105	i	0.94
COc1ccc(C(=O)Nc2c(N)nc(SCC(=O)N3CCCCCC3)[nH]c2=O)cc1OC	-1.9	nt	nt	0	102	i	1
Cc1noc(C)c1COC(=O)CCc1nc2ccccc2s1	-1.2	nt	nt	-3	102	i	1.2
COC(=O)c1cc(NC(=O)CC2SC(=Nc3ccccc3)N(CCc3c[nH]c4ccccc34)C2=O)cc(C(=O)OC)c1 (configuration not stated)	-0.8	nt	nt	2	106	i	0.86
Cc1nc2sc(C(c3ccco3)N3CCN(c4cccc(Cl)c4)CC3)c(O)n2n1 (configuration not stated)	-1.1	-110	96	0	111	i	0.85
COc1cc2c(cc1O)[C@@H]1Cc3cc(OC)c(OC)cc3C(C2)N1C	nt	nt	nt	nt	100	i	0.98

3 compounds from above, arranged by formula weight, largest number first.
SMILES	GALR2 agonist	Insulin prom inh	Insulin prom inh cell count	PKD1 inh	RGS16-Gao	HSV augment	HSV augment primary fold
N/C(=N\N=C/c1ccc(Br)cc1)N/N=C\c1ccc(Br)cc1	nt	nt	nt	-4	95	i	0.93
O=C(c1ccco1)N1CCN(Cc2ccc(Cl)cc2)CC1	-1.3	-47	83	3	101	i	0.91
CC(=O)Cn1c(CN2CCCCC2)nc2ccccc2c1=O	nt	nt	nt	-4	100	i	1.1

In another format: 2 of the compounds above
compound,GALR2 agonist,Insulin prom inh,Insulin prom inh cell count,PKD1 inh,RGS16-Gao,HSV augment,HSV augment primary fold
CCOC(=O)Nc1nn(-c2ccc(C)cc2)c(=O)c(C#N)c1C,nt,24,103,-6,100,i,0.84
Cc1ccc(NC(=O)CSc2nc(N)c(-c3ccccc3)c(=O)[nH]2)cc1Cl,nt,nt,nt,-2,97,i,0.9

(list continues)
SMILES	GALR2 agonist	Insulin prom inh	Insulin prom inh cell count	PKD1 inh	RGS16-Gao	HSV augment	HSV augment primary fold
CN1CCN(c2ccc(NC(=O)c3ccccc3Br)cc2)CC1	0.4	6	102	-6	102	i	0.73
CCOC(=O)Cc1cc(=O)n2[nH]c(C)c(-c3ccc(Cl)cc3)c2n1	-1.5	27	119	0	98	i	0.93
O=C(/C=C/c1ccco1)NC(=S)Nc1cccc([N+](=O)[O-])c1	0.2	nt	nt	-4	100	i	1.2
COc1ccc(C(=O)NCc2ccc(Cl)c(Cl)c2)cc1OC	-0.8	-7	145	3	106	i	0.9
Cc1ccc(C(C)C)c(OCCCNCc2cccnc2)c1	nt	nt	nt	0	101	i	0.9
CCn1c(CNc2cccc(Cl)c2)nnc1SCc1ccccc1	-1.2	-6	111	9	87	i	0.98
Cc1ccc(Cn2c(=O)c3ccccc3n3nc(C)cc23)cc1	nt	nt	nt	1	96	i	0.98
Cc1ccc(S(=O)(=O)N2CCCC2C(=O)Oc2ccccc2)cc1 (configuration not stated)	0.0	55	112	6	101	i	0.98
CCOc1cc(NC(=O)c2ccco2)c(OCC)cc1NC(=O)COc1ccccc1	1.6	-19	93	-8	88	i	0.71
COc1ccc(/C=C2/N=C(c3cccs3)OC2=O)cc1OC(C)C	0.3	27	105	6	77	i	0.89
O=C(O)CCC(=O)c1cccc2ccccc12	-0.9	17	101	-5	78	i	0.75
Cc1ccc(N(CC(=O)NC2CCC(C)CC2)S(=O)(=O)c2cccnc2)cc1 (configuration not stated)	-1.1	nt	nt	-12	100	i	0.84
Clc1ccc(-c2csc(-c3ccncc3)n2)cc1	nt	nt	nt	3	95	i	1.1
O=C(NCc1ccccn1)C1CCCN(S(=O)(=O)c2ccc(Br)cc2)C1 (configuration not stated)	-2.3	-284	36	-2	104	i	0.91
COc1ccc(CCNC(=O)C2CC(=O)N(CCc3ccc(C)cc3)C2)cc1OC (configuration not stated)	nt	6	94	9	107	i	0.94
Cc1[nH]c2ccccc2c1CC#N	nt	nt	nt	nt	104	i	0.59
NC(=O)Cn1cnc2nc3n(c2c1=O)CCC3	nt	29	111	-9	97	i	0.97
COc1ccc(C(=O)/C=C/C(=O)N(CC(=O)NCCC(C)C)Cc2cccs2)c(O)c1	nt	nt	nt	-6	99	i	0.92
Cc1cc(=O)[nH]c(-n2ncc(C#N)c2N)n1	nt	nt	nt	-1	96	i	0.84
CCOc1cc(/C=C2/SC(=S)N(CC3CCCO3)C2=O)ccc1O (configuration not stated)	nt	nt	nt	7	95	?	nt
C=CCOc1ccc(Br)cc1CNC(C)(C)C	nt	-13	147	-3	99	i	0.95
Cc1ccc(SCCC(=O)Nc2nccs2)cc1	nt	44	139	-7	102	i	0.87
c1ccc(Oc2nc(-c3ccccn3)nc3ccccc23)cc1	nt	nt	nt	nt	98	i	0.91
O=C(NNC(=O)c1cc(O)c(O)c(O)c1)NC1CCCCC1	-1.6	nt	nt	0	75	i	1.1
Cc1sc(NC(=O)c2ccco2)c(CN2CCCCC2)c1C	-0.1	nt	nt	-7	97	i	0.89
N#Cc1c(-c2cccs2)nc(SCC(=O)c2ccc(Br)cc2)[nH]c1=O	nt	nt	nt	nt	99	i	1.1
Cc1cc(S(=O)(=O)N2CCCC2)c(C)s1	-1.9	nt	nt	-6	100	i	0.7
Cc1nc2cc(NC(=O)N3CC4(C)CC3CC(C)(C)C4)ccc2n1C (configuration not stated)	-1.7	-16	117	-6	97	i	0.88
CC(=O)c1cc(C#N)c(N2CCCC2)nc1C	nt	nt	nt	-3	98	i	0.93
O=C(O)c1ccc(-n2ncc3c2/C(=C/c2cccc([N+](=O)[O-])c2)CC3)cc1	nt	nt	nt	nt	101	i	0.99
CCCCn1c(CNC(C)=O)nc2ccccc21	-3.4	nt	nt	-9	92	i	0.97
